Bioassay records: PubChem BioAssay, ICCB-Longwood Screening Facility, Harvard Medical School
CapD inh: inhibitors of Bacillus anthracis CapD enzyme; purified CapD enzyme, fluorescence intensity read-out; stronger effect = lower value; some hits fall short of the stated cut; z-score (test concentration not listed); hit rate 0.23% among 140,000; AID 492967;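 active = z-score under -4 in either of two replicates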;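 also: stock transfer was 100 nL into about 40 µL; score is relative to mean and spread of the plate; one replicate is shown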
AID504770: E. coli YBA685 growth inhibition, screen for V. cholerae RctB inhibitors | hit rate 0.27% among 130,000 | AID 504770 | z-score (test concentration not listed) | E. coli YBA685 rctB-dependent plasmid, OD600 growth, 3 h; stronger effect = lower value;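 active = z-score under -2 on both plates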;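 also: wells of about 30 µL received 100 nL stock; score is relative to mean and SD of the test wells; the first replicate is given; strong numbers were not always called active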
An asterisk follows results filed as active; x = no result given.

SMILES,CapD inh,AID504770
Cc1nnsc1C(=O)N(C)c1ccccc1,x,0.85
O=C(CN1CCOCC1)Nc1nnc(CCS(=O)(=O)c2ccc(Br)cc2)s1,-0.475,x
CCOC(=O)c1oc2ccccc2c1COC(=O)CNC(=O)c1ccc2c(c1)OCO2,x,1.2
CCOC(=O)C1=C(C(=O)OCC)SC(=C2C(=S)C(C)(C)N(C(=O)c3ccc(C(C)(C)C)cc3)c3ccc(OCC)cc32)S1,-0.27,x
CCCC(=O)N(Cc1ccccn1)c1nc2ccccc2s1,x,0.1
O=C(NNC(=O)c1ccc(O)cc1)OCC1(c2ccc(Cl)cc2)CC1,-0.26,x
Cc1ccc(C2c3c(oc4ccccc4c3=O)C(=O)N2c2nccs2)cc1 (centres undefined),-0.105,-0.2
CCOC(=O)N1CCC(n2ccc3nc(SC)ncc3c2=O)CC1,5.56,-0.15
CC12CC3(C)CC(C)(C1)CC(Br)(C2)C3,0.265,x
COc1cc(C(F)(F)F)nc2ccc(C#CCO)cc12,1.18,-0.25
CN(C)C(=O)C1CCCN1 (centres undefined),x,-0.3
COc1cc2c(cc1OC)C1CCCN1C(C)(C)C2 (centres undefined),1.67,1.1
CC(C)(C)C(=O)C(C#N)C(=O)Nc1ccc(Cl)cc1 (centres undefined),-0.615,0.65
Oc1ccccc1CNc1nc2ccccc2n1CCN1CCCCC1,0.84,0.45
COc1ccc(C)cc1S(=O)(=O)NCC(c1ccco1)N1CCc2ccccc2C1 (centres undefined),x,-0.6
Cc1ccc(Oc2ncccc2C(=O)NC(=O)c2ccccc2O)cc1,-0.71,-0.95
CCCCn1cnc2cc(NCc3cccs3)ccc21,32.9,-0.45
COC(=O)c1sc(SC)c(C#N)c1-c1ccc(Cl)cc1,-0.53,x
O=C(O)c1cc2ccc3c(c2oc1=O)CN(c1ccc(Cl)cc1)CO3,90.2,0
Cc1ccc(-n2c(=O)c3ccccc3n(CC(=O)NCCc3ccccc3)c2=O)cc1,-1.09,-0.35
Cc1c(C(=O)Nc2ccccc2)cc(-c2ccccc2)n1-c1ccccc1,10.8,1.3
O=C(NCC1CCCO1)c1ccc2c(c1)ncn2-c1ccc(OCc2ccccc2)cc1 (centres undefined),0.42,x
Cc1nn(-c2ccccc2)nc1C(=O)NC(=O)N1CCCC1,-0.655,x
Cc1ccc(S(=O)(=O)c2ccc(C)cc2)cc1,-0.21,-0.75
O=C(CC1(O)C(=O)Nc2ccc(Br)cc21)c1ccncc1 (centres undefined),0.15,x
CCC(Sc1ccc2nnc(-c3ccc(C)cc3)n2n1)C(=O)O (centres undefined),0.425,-0.15
COc1ccc2c(=O)c(-c3cc4ccccc4o3)coc2c1,x,0.15
Cc1ccc(-n2c(CCC(=O)OCC(=O)NC3CCS(=O)(=O)C3)nc3ccccc3c2=O)cc1 (centres undefined),x,0.7
O=C(CSc1nc2ccccc2o1)n1c2ccccc2c2ccccc21,-0.5,x
CN(C)c1cccc(C(=O)OCC(=O)c2ccc(F)cc2)c1,0.715,0.1

Three entries from above, arranged by number of heavy atoms, high to low.
SMILES,CapD inh,AID504770
Oc1ccccc1CNc1nc2ccccc2n1CCN1CCCCC1,0.84,0.45
CCOC(=O)N1CCC(n2ccc3nc(SC)ncc3c2=O)CC1,5.56,-0.15
CC(C)(C)C(=O)C(C#N)C(=O)Nc1ccc(Cl)cc1 (centres undefined),-0.615,0.65

The listing continues:
SMILES,CapD inh,AID504770
Cc1nc2sc3c(c2c(=O)o1)CCC3,0.01,x
CN1CCN(C(=O)c2ccc(-n3cc(-c4cnccn4)cn3)cc2)CC1,4.79,x
Cc1ccc(C2=NN(C(=O)COC(=O)[C@H](Cc3ccccc3)N3C(=O)c4ccccc4C3=O)C(c3ccco3)C2)cc1 (some centres undefined),x,0.2
Cn1c(=O)c2cc3c(=O)n(C)c(=O)c3cc2c1=O,0.21,0.7
CCC(C)(C)c1ccc(OCCCCNC(=O)N(CC(C)O)CC(C)O)c(C(C)(C)CC)c1 (centres undefined),0.08,x
O=C(NC1CCCC1)C1CCN(S(=O)(=O)c2ccc3nc(-c4ccccc4)[nH]c3c2)CC1,-0.315,1.35
CC(=O)N1CCc2nc3ccccc3c(C(=O)O)c2C1,-0.1,x
Cc1ccc(C(=O)n2ccc(-c3ccccc3OCc3ccc(F)cc3)n2)cc1,2.86,x
O=C(CCn1c(SCc2cc(=O)n3cc(Cl)ccc3n2)nc2ccccc2c1=O)NCc1ccc(F)cc1,1.36,x
CCCCNC(=O)N1CCCCC1,0.865,0.4
O=C(NCC1CCCO1)c1ccc(/C=N/O)nc1 (centres undefined),-0.345,-0.9
COCCOC(=O)C1=C(N)OC2=C(C(=O)CC(C)(C)C2)C1c1ccc(Br)cc1 (centres undefined),-0.37,x
Cc1cc(C(=O)OCC(=O)c2ccc(NC(=O)CC(C)C)cc2)no1,x,1.4
N#Cc1c(C(F)(F)F)cc(-c2cccs2)nc1SCC(=O)Nc1ccc(C(N)=O)cc1,4.62,x
O=C(COC(=O)C1CC(O)CN1S(=O)(=O)c1ccc(F)cc1)Nc1nccs1 (centres undefined),x,-0.2
COc1ccc(CC(=O)NCc2cc(C)oc2C(F)(F)F)cc1OC,1.56,-0.3
CCOC(=O)C1CCCN(CCN(C)C)C1 (centres undefined),0.53,0.8
Cc1ccc2c(c1)-c1c(ssc1=S)C(C)(C)N2C(=O)CCC1CCCCC1,-0.125,x
CC(c1ccccc1)C(CC(=O)O)C(=O)O (centres undefined),0.445,0.35
CC(=O)NC1C(OC(C)(C)C)OC(COC(C)=O)C(OC(C)=O)C1OC(C)=O (centres undefined),-0.25,x
COc1cc(C(=O)CBr)cc(OC)c1OC,-0.055,-0.8
CC(C)(CO)NCC(=O)Nc1ccc(Cl)cn1,-0.715,-0.6
Oc1c(C(c2cccs2)N2CCOCC2)sc2ncnn12 (centres undefined),-1.75,-0.1
O=C(CC1Cc2ccccc2C1)NNC(=O)c1ccc2nsnc2c1,0.155,x
O=c1[nH]cc(N(CCO)CCO)c(=O)[nH]1,-0.635,-0.75
CCN1CCN(Cc2c(O)ccc3c(=O)c(-c4ccc(OC)c(OC)c4)c(C(F)(F)F)oc23)CC1,-1.24,x
CC(C)N(Cc1ccccc1)C(=O)Cn1ncc2c(=O)oc3ccccc3c21,0.485,-1.55
CCOc1cc(C2CC(=O)Nc3c2ccc2ccccc32)ccc1O (centres undefined),4.2,x
COc1ccccc1C1CCN(c2ccc(C(F)(F)F)cc2[N+](=O)[O-])CC1,-1.16,x
CC12CCC(C(=O)O)(c3nc4ccc5ncccc5c4nc31)C2(C)C (centres undefined),0.84,-0.6

Shown as labelled records: 2 of the compounds above
SMILES: CC(C)N(Cc1ccccc1)C(=O)Cn1ncc2c(=O)oc3ccccc3c21
  CapD inh = 0.485	AID504770 = -1.55
SMILES: CCOc1cc(C2CC(=O)Nc3c2ccc2ccccc32)ccc1O (centres undefined)
  CapD inh = 4.2	AID504770 = x

(further entries)
Below each compound: CapD inh | AID504770
CCN(CC)CCNC(=O)c1sc2ncnc(N(C)c3ccccc3)c2c1C
→ -0.435 | x
O=S(=O)(c1ccc(Cl)s1)N1CCN(S(=O)(=O)c2ccc(Cl)s2)CC1
→ -0.155 | 0.1
Cc1ccc(/C=C/C(=O)OCc2nc3ccccc3c(=O)n2CC#N)o1
→ x | 2
O=C(/C=C/c1ccc2c(c1)OCO2)NCCn1ccc2ccccc21
→ 2.58 | 0.45
CC1CCCCN1C(=O)Cn1c(=O)n(C2CCCC2)c(=O)c2ccccc21 (centres undefined)
→ 0.425 | 0.15
CC(C)(CC(=O)O)CC(=O)N1CC=C(c2ccc(F)cc2)CC1
→ 1.02 | x
CC(Sc1nncn1-c1ccccc1)C(=O)N(C)c1ccccc1 (centres undefined)
→ x | -0.65
O=C(COc1ccc2ccccc2c1)Nc1ccc(Cc2ccccn2)cc1
→ 0.785 | -0.05
CCOC(=O)c1c(C)n(Cc2ccccc2)c2ccc(OC(=O)c3cccc(Br)c3)cc12
→ -0.075 | x
CCCc1nc(SCC(=O)c2ccc3c(c2)NC(=O)CO3)[nH]c(=O)c1CC
→ x | -0.45
CN(C)c1ccc(/C=N/NC(=O)c2ccccc2)cc1
→ x | 0.75
Nc1cc(=O)n(Cc2ccco2)c(=S)[nH]1
→ -1.04 | x
CC(=O)NC(C(=O)Nc1ccc(F)c(Cl)c1)C(C)C (centres undefined)
→ x | 0.65
CSc1nc2ccc(NC(=O)c3cccc(C)c3)cc2s1
→ -0.055 | x
O=C(NCCCN1CCCC1=O)C1CC(=O)N(Cc2ccco2)C1 (centres undefined)
→ x | 1.05
CCc1ccc(/C(C#N)=C/C=C/c2ccccc2)cc1
→ 20.7 | 0.55
N#Cc1c(N)nc(Sc2ccc(Cl)cc2)c(C#N)c1-c1ccccc1
→ 1.1 | 0.9
O=S1(=O)CC(NCc2ccccc2)C(Nc2ccccc2)C1 (centres undefined)
→ x | -0.55
Oc1cccc(NCC(O)Cn2ccc3ccccc32)c1 (centres undefined)
→ x | 1.3
NS(=O)(=O)c1ccc(-c2ccc(C=C3C(=O)NC(=S)NC3=O)o2)cc1
→ -2.34 | -0.95
Cc1nc(-c2ccccc2)sc1C(=O)CSc1nc2ccccc2o1
→ -0.035 | x
CN1C(C(=O)Nc2cccnc2)=CC(c2cccs2)=NS1(=O)=O
→ -0.4 | -0.9
COc1cccc2cc(C(=O)O)oc12
→ 3.71 | 1.1
O=C(COC(=O)c1c2c(nc3ccccc13)CCC2)c1ccccc1
→ 0.37 | 1.6
O=C(OCC(=O)N1CCCC1)C1=COCCO1
→ x | -0.4
CC1(C)CC(=O)C=C(NNC(=O)C2COc3ccccc3O2)C1 (centres undefined)
→ x | 0.35
c1ccc2sc(-c3ccn[nH]3)cc2c1
→ -0.435 | -0.95
CCCC(=O)Nc1nc2n(n1)C(c1ccccc1)C=C(c1ccccc1)N2 (centres undefined)
→ 7.78 | -1.2
Clc1ccc(NCc2ccc3c(c2)OCO3)cc1
→ x | 1.65
COc1cccc(NC(=O)C(C)N(C)c2ccccc2)c1 (centres undefined)
→ x | -0.65
O=C(CNC(=O)c1ccccc1F)c1ccc(Cl)cc1
→ -0.185 | 0.1
O=C(c1ccc(Cn2c(=S)[nH]c3ccc(Br)cc3c2=O)cc1)N1CCN(C(=O)c2ccco2)CC1
→ 0.025 | x
CN(C)S(=O)(=O)c1ccc2c(c1)nc(CCC(=O)NCC1CCCCC1)n2C
→ x | 0.25
COC(=O)c1ccc(CSc2ncnc3sc(C)c(C)c23)o1
→ x | -1.4
CCOC(=O)c1ccc(NC(=S)N2CCCN(Cc3cc(C)ccc3C)C2)cc1
→ -0.365 | -0.25
COc1cccc(-c2[nH]nc(N)c2C)c1
→ x | 1.65
CCC1COC(c2cccn2C)=N1 (centres undefined)
→ 0.085 | -1.3
C=CCSc1nc2sc3c(c2c(=O)n1CC=C)CCCC3
→ x | -0.8
CC(C)C(C#N)C(C#N)C(C)C (centres undefined)
→ 0.2 | x
S=C(NCc1csc2ccccc12)NCC1CC1
→ 0.225 | -0.65
COc1ccc(NS(=O)(=O)c2ccc(CCN3C(=O)c4cccnc4C3=O)cc2)cc1
→ 0.725 | -0.55
O=C(c1ccccc1)c1ccc(C(C(=O)N/C=N/O)c2ccc(Cl)cc2)cc1 (centres undefined)
→ -0.71 | x
Brc1ccc(-c2nc3ccccc3s2)s1
→ 11.9 | -0.75
O=C(O)CN1C(=O)COc2ccccc21
→ 0.07 | -1
CCn1cc(S(=O)(=O)NCCc2ccccc2)cn1
→ -0.655 | -0.85
Cc1ccc(-c2nnc(NCc3nc4ccccc4[nH]3)c3ccccc23)cc1S(=O)(=O)N1CCCCC1
→ 0.38 | x
CCC(C)NC(=O)c1ccc2c(c1)NC(=O)C(CC(C)C)N2 (centres undefined)
→ 11.2 | -0.9
Cc1nc(-c2ccc(OC(F)F)cc2)cs1
→ 0.49 | -0.55
CCCc1c(C(=O)NCc2ccc(OC)c(OC)c2)cnn1-c1ccccc1
→ -0.45 | 0.35
O=C(CNC(=O)c1cccs1)N/N=C/c1ccc([N+](=O)[O-])s1
→ -2.63 | x
COc1ccccc1C(c1c(C)[nH][nH]c1=O)C(C#N)C#N (centres undefined)
→ 2.08 | 0.1
COc1cc(OC)cc(C2C(C#N)=C(N)Nc3oc(C)nc32)c1 (centres undefined)
→ 0.61 | -0.7
Cc1nn(-c2ccc(F)cc2)cc1C(=O)Nc1ncc(C(F)(F)F)cc1Cl
→ -0.335 | x
Cc1ccc(-c2ccc(O)c(C)c2)cc1
→ -0.785 | -0.8
Cn1c(=O)oc2cc(S(=O)(=O)N3CC(=O)N(CCc4ccccc4)C(=O)C3)ccc21
→ 23.4 | -0.45
Cc1nnsc1C(=O)N1CCN(c2ccc(F)cc2)CC1
→ 0.195 | -0.1
CCCCn1c(CNC(=O)Cc2ccc(OC)cc2)nnc1SCC(=O)Nc1sc2c(c1C(=O)OCC)CCC2
→ -0.755 | x
CN(Cn1c(=O)oc2ccccc21)C1CCCCC1
→ 0.255 | -1.25
CCc1ccc(NC(=O)C(C)Nc2ccc(Br)cc2)cc1 (centres undefined)
→ 0.31 | 1

Copied from the list.
`S=C(NCc1csc2ccccc12)NCC1CC1` – CapD inh = 0.225
`C=CCSc1nc2sc3c(c2c(=O)n1CC=C)CCCC3` – AID504770 = -0.8
`CCCc1c(C(=O)NCc2ccc(OC)c(OC)c2)cnn1-c1ccccc1` – AID504770 = 0.35
`CN(C)S(=O)(=O)c1ccc2c(c1)nc(CCC(=O)NCC1CCCCC1)n2C` – AID504770 = 0.25
`O=C(CNC(=O)c1cccs1)N/N=C/c1ccc([N+](=O)[O-])s1` – CapD inh = -2.63
`Cc1nn(-c2ccc(F)cc2)cc1C(=O)Nc1ncc(C(F)(F)F)cc1Cl` – CapD inh = -0.335
`CCC1COC(c2cccn2C)=N1` (centres undefined) – CapD inh = 0.085

One compound at a time (already shown). Order of screens: CapD inh | AID504770
Cc1ccc(-c2nnc(NCc3nc4ccccc4[nH]3)c3ccccc23)cc1S(=O)(=O)N1CCCCC1 reads 0.38 | x
Cn1c(=O)oc2cc(S(=O)(=O)N3CC(=O)N(CCc4ccccc4)C(=O)C3)ccc21 reads 23.4 | -0.45
CN(Cn1c(=O)oc2ccccc21)C1CCCCC1 reads 0.255 | -1.25

Only part of the results is shown. The share of hits here may be higher or lower than overall.
